Assay outcomes from PubChem BioAssay.
GIV-Gai inh: inhibitors of GIV GBA-motif binding to rat Galpha-i3. AID 1224905. percent of control (FP), % (no concentration beside the values). 210,000 compounds, 0.42% hits. Galpha-i3/FITC-GIV peptide fluorescence polarization, 90 min; active compounds read low; scaled: aluminum fluoride 0%, vehicle 100%. P08753;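 active = replicate mean at 85% of control or lower, very high polarization wells dropped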;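 note: wells of about 15 µL received 100 nL stock; the first replicate is given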
Target sequence (P08753 whole entry, looked up): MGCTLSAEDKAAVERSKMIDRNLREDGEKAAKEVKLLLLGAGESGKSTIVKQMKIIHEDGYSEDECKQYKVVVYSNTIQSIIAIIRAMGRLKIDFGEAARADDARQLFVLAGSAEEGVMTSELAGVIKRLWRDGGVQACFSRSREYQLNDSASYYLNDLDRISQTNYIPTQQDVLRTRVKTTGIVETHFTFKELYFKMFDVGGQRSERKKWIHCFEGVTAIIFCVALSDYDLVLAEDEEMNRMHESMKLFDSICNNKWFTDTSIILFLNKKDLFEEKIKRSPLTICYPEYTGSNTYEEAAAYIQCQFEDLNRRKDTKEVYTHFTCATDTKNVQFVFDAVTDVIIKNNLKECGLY
* hit, by the source's call. An excerpt (hit frequency here may not be typical).

canonical_smiles | GIV-Gai inh
Cc1nnc2sc3c(n2c1=O)C(=O)N(c1ccc(I)cc1)C3=O | 114.2
CC1(C)c2ccccc2N2CCC(=O)NC21/C=C/c1cccs1 (centres undefined) | 107.1
Cc1ccc(-c2cnc(N3CCCC(C(=O)NCc4ccc5c(c4)OCO5)C3)nc2)cc1 (centres undefined) | 100.9
CCCCSc1c(CC)cnc2c1c(=O)n(C)c(=O)n2C | 96.9
NC(=O)c1ccccc1NC(=O)c1ccc(=O)n(Cc2cccc(Cl)c2)c1 | 104.3
COc1ccc(-c2cc3n(C)c(C)c(CCC(=O)Nc4ccc5c(c4)OCO5)c(=O)n3n2)cc1OC | 110.1
CNC(=O)N1CCC(OC(C)=O)CC1 | 101.2
O=C(NC1CCCC1)C1CCCN(c2ncnc3c2oc2ccccc23)C1 (centres undefined) | 104.9
Cc1cccc(C)c1Nc1nc2nonc2nc1Nc1ccccc1 | 106.9
CCOC(=O)C1C(=O)NC(SCC(=O)Nc2cccc(C)c2C)=C(C#N)C1c1ccccc1Cl (centres undefined) | 114.1
COCCNC(=O)c1ccc(Cn2c(SCC(=O)NCc3ccco3)nc3ccc(Br)cc3c2=O)cc1 | 100.8
O=C1CC(c2ccccc2OCc2ccc(F)cc2)c2cnn(-c3nc4ccccc4s3)c2N1 (centres undefined) | 100.5
COc1cccc(-c2cc(N3CCN(C(=O)NCC4CCCO4)CC3)ncn2)c1 (centres undefined) | 98.3
CCc1onc(C)c1C1CCCN1C(=O)Nc1ccc(Br)cc1 (centres undefined) | 103.4
Cc1sc(-c2nc(-c3ccccc3)no2)cc1S(=O)(=O)NC1CCCC1 | 110.4
O=C(Nc1ccc(S(=O)(=O)N2CCCCC2c2cccnc2)cc1)c1cccc([N+](=O)[O-])c1 (centres undefined) | 108.1
CC(=O)OCC1OC(Oc2ccc(C(=O)OCCCN3CCOCC3)c(O)c2)C(OC(C)=O)C(OC(C)=O)C1OC(C)=O (centres undefined) | 100.9
COc1ccc2nc(-n3nc(C)c4c3NC(=O)CC4c3cc(C)sc3C)sc2c1 (centres undefined) | 101.3
COC(=O)C1=CN(Cc2ccc(Cl)cc2)C=C(C(=O)OC)C1c1cc(Br)ccc1OC | 102.3
C=CCOc1cc(C2CC(=O)Nc3c2c(C)nn3-c2nncc(-c3ccc(C)cc3)n2)ccc1OC (centres undefined) | 97.9
COc1cccc(C2Nc3ccc(C)cc3[C@H]3OCC[C@@H]23)c1OC1CCCC1 (some centres undefined) | 101.5
Cc1ccc(NC(=O)C2CC2(c2cccc(C)c2)c2cccc(C)c2)cc1 (centres undefined) | 100.1
Cn1c(=O)n(Cc2ccc(C(C)(C)C)cc2)c(=O)c2c1ncn2Cc1ccccc1 | 113.1
O=C(Nc1ccc(Cl)cc1C(F)(F)F)c1cc(S(=O)(=O)N2CCC(C(=O)O)CC2)ccc1F | 106.8
Cc1sc(C)c(S(=O)(=O)N2CCN(c3ccccc3F)CC2)c1-c1cc(C(F)(F)F)on1 | 107.5
Cc1cc(N2CCC(C)CC2)n2nc(CN3CCN(C(C)C)CC3)nc2n1 | 99.6
O=C(Cc1cccs1)N1CCCCC1CCN1CCOCC1 (centres undefined) | 117.1
O=C1CSC(c2ccccc2[N+](=O)[O-])N1c1ccc(Oc2ccccc2)cc1 (centres undefined) | 103.5
O=C(CSc1n[nH]c(-c2ccccc2)n1)NCC1CCCO1 (centres undefined) | 106.0
CC(C)c1cc(C2CCCN2C(=O)NC(C)(C)C)on1 (centres undefined) | 100.9
COC(=O)c1c(-c2ccc(Cl)cc2)noc1N1CCC(N2CCCCC2)CC1 | 110.3
CCc1nn2c(=O)cc(CN(Cc3ccc(C)cc3)CC(C)C)nc2s1 | 104.1
CCOC(=O)c1c(C)[nH]c(C)c1S(=O)(=O)N1CCC(C(=O)NCCc2nc3ccccc3[nH]2)CC1 | 103.2
CCc1cc(C2CCCN2S(=O)(=O)c2ccc3c(c2)CCCC3)on1 (centres undefined) | 103.5
CCOC(=O)C1CCCN(c2ncnc3c2cnn3-c2ccc(Cl)cc2)C1 (centres undefined) | 106.5
CCc1noc2nc(CCC(=O)NC(C)C)nc(N3CCCCC3)c12 | 97.4
COc1ccc(Nc2cc(C)nc(Nc3ccc(NC(=O)Cc4ccccc4)cc3)n2)cc1 | 104.8
Cc1ccc(N/C(SCc2ccc(Cl)cc2)=C(/C#N)C(N)=O)cc1C | 101.1
CC(C)c1[nH]nc2c1C1(C(=O)Nc3ccc(F)cc31)C(C#N)=C(N)O2 (centres undefined) | 110.5
Cc1ccc(-c2c(C)nn3c2NC(=O)CCC3=O)cc1S(=O)(=O)N1CCn2c1nc1ccccc12 | 104.6
Cc1nn(C)c(C)c1-c1cc2n(n1)CCCN(C(=O)C1CCC1)C2 | 100.3
CCOc1ccc(-n2c(CNC(=O)c3ccco3)nnc2SCC(=O)Nc2nnc(C)s2)cc1 | 96.3
CSCC[C@H](NC(=O)C1CCCCC1)C(=O)NCc1cscn1 | 104.6
CCC(CCC(C)C1CCC2C3CC=C4CC(OC(=O)c5ccccc5)CCC4(C)C3CCC12C)C(C)C (centres undefined) | 110.1
CCCCCNC(=O)c1cn(C)nc1S(=O)(=O)N1CCSCC1 | 103.4
COc1ccc(-c2noc(N3CCC(C(=O)N4CCN(C5CCCCC5)CC4)CC3)n2)cc1OC | 101.7
Cc1ccc(NC(=O)Cn2cnc3sc(C(=O)N4CCN(Cc5ccc6c(c5)OCO6)CC4)c(C)c3c2=O)cc1Cl | 120.1
COc1ccc(C2=NN(c3ccc([N+](=O)[O-])cc3)C(=O)/C2=C\c2cc(OC)c(O)c(OC)c2)cc1 | 105.2
N#CC1(C#N)[C@@H]2c3ccccc3C=CN2[C@@H](C(=O)c2cccs2)[C@@H]1c1ccsc1 | 122.5
CCCc1ccc(OCc2nc(-c3ccc(NC(=O)Cc4ccccc4OC)cc3)no2)cc1 | 96.8
COc1cc(C2Nc3ccc4ccccc4c3C3=C2C(=O)CC(C)(C)C3)cc(Br)c1OC(C)=O (centres undefined) | 106.1
COC(CNC(=O)c1ccc2c(c1)nc(C)n2-c1ccc(Br)cc1)OC | 104.6
O=C(NC1CCCCC1)c1ccc(-c2ccc(F)cc2)nc1 | 106.6
CC(C)CCNC(=O)CSc1nnc2n(CCC(=O)NCC(C)C)c(=O)c3ccccc3n12 | 98.8
CC1CCN(c2nc3nonc3nc2Nc2cccc(Cl)c2)CC1 | 109.9
Clc1ccc(C2N(c3ccc(Cl)cc3)CCN2c2ccc(Cl)cc2)cc1 | 103.9
Cc1ccc(Cl)cc1NC(=O)CSC1=C(C#N)C(c2cccs2)C2=C(CCCC2=O)N1 (centres undefined) | 106.0
CCc1ccc(NC(=O)Nc2ccccc2OCc2cc(=O)n3ccc(C)cc3n2)cc1 | 100.8
CCN1CCN(c2nc(-c3ccc(Cl)cc3)nc3ccccc23)CC1 | 111.5
CC1CCN(S(=O)(=O)c2cccn(Cc3ccc(F)cc3Cl)c2=O)CC1 | 113.8

New compounds follow:
canonical_smiles | GIV-Gai inh
CCOc1ccc(CN2C(=O)c3ccccc3CC2(C)C(=O)NCc2ccc(C)cc2)cc1 (centres undefined) | 112.5
COc1ccc(Oc2ncc(-c3cccc(C(=O)NC(C)C)c3)cn2)cc1 | 110.2
COc1cc(C(=O)Nc2c3c(nn2-c2cccc(C)c2C)CS(=O)(=O)C3)cc(OC)c1OC | 114.2
O=C(CCc1nc2ccccc2n(CC(=O)Nc2cc(F)cc(F)c2)c1=O)NCc1ccccc1 | 100.1
O=C(NCc1c(-c2ccccc2)nc2n1CCS2)c1cccc(F)c1 | 100.5
CN1c2ccc(Cl)cc2C(=O)NC12CCN(C(=O)Nc1ccc3c(c1)OCCO3)CC2 | 95.8
CCOC(=O)C1=C(C(=O)OCC)SC(=C2C(=S)C(C)(C)N(C(=O)C(C)C)c3cc(C)ccc32)S1 | 111.2
CN(Cc1ccccc1)Cc1c(O)ccc2c3c(c(=O)oc12)CCC3 | 110.1
O=c1[nH]c2ccc(S(=O)(=O)Nc3ccc(F)cc3F)cc2[nH]1 | 97.3
Cn1c(=O)c2c(n(C)c1=O)n(Cc1ccccc1)c(=O)n2C | 104.3
CN(C)S(=O)(=O)N(CC(=O)NC1CCS(=O)(=O)C1)c1ccccc1 (centres undefined) | 100.7
COc1ccc(OC)c(CNC(=O)c2ccc(Oc3ccnc(-c4ccc(F)cc4)n3)cc2)c1 | 99.5
Cc1cc(N2CCCC2)nc(N2CCN(S(C)(=O)=O)CC2)n1 | 107.0
CCOC(=O)C1=c2s/c(=C/c3ccccc3Br)c(=O)n2C(N)=C(C#N)C1c1ccccc1Br (centres undefined) | 104.0
Clc1cccc(-c2nc(-c3ccccc3)c(-c3ccccc3)[nH]2)c1 | 101.5
O=C(CN1C(=O)C2CCCN2C(=O)c2cc(F)ccc21)NCCN1CCCCC1 (centres undefined) | 101.6
N#CC1=C(N)S[C@@H](C(=O)c2ccccc2)[C@@H]1c1ccccc1[N+](=O)[O-] | 114.2
Cc1ccc(C)c(C(=O)Cn2c(=O)n3nc(-c4ccccc4)nc3c3ccccc32)c1 | 97.4
CCOc1cc(C2C(C#N)=C(N)Oc3n[nH]c(-c4ccc(Br)cc4)c32)ccc1OC(=O)N1CCOCC1 (centres undefined) | 112.5
Cc1ccc(N2C(=O)/C(=C\c3ccc(-c4ccccc4C(=O)O)o3)C(=O)NC2=S)cc1 | 104.8
O=C(Nc1ccc2oc(-c3ccccc3)nc2c1)c1cccc(-n2cnnc2)n1 | 97.6
O=C(Nc1ccc2c(c1)OCO2)N1CCN(c2nc3ccccc3n3cccc23)CC1 | 100.9
CCC(C)(C)C1CCc2c(sc(NC(=O)c3c(-c4ccccc4Cl)noc3C)c2C(N)=O)C1 (centres undefined) | 100.4
Cc1c(Cl)cccc1NC(=O)Nc1cccc(OCc2cc(=O)n3ccccc3n2)c1 | 99.0
COc1ccc(-n2nc3c(c2NC(=O)C2(c4ccc(Cl)cc4)CCCC2)CS(=O)(=O)C3)cc1 | 111.3
O=C(NCc1ccc(F)cc1)c1ccc(Oc2ccnc(-c3cccc(F)c3)n2)cc1 | 99.1
COC(=O)CNC(=O)N1CCCCCC1c1ccc(C)s1 (centres undefined) | 101.6
CCC1CCCCN1S(=O)(=O)c1cc(-c2ccc(=O)[nH]n2)cs1 (centres undefined) | 105.4
NC(=O)C1(N2CCCCC2)CCN(C(=O)c2cccc(-n3c(=S)[nH]c4cc(Cl)ccc4c3=O)c2)CC1 | 113.3
O=C(c1ccc([N+](=O)[O-])cc1)N1N=C(C(F)(F)C(F)(F)C(F)(F)F)CC1(O)c1ccccc1 (centres undefined) | 107.5
CCOC(=O)C1=C(CSc2nc3c(cc2C#N)CCCCC3)OC(N)=C(C#N)C1c1ccc(SC)cc1 (centres undefined) | 117.6
CCOC(=O)C1=C(C(=O)OCC)SC(=C2C(=S)C(C)(C)N(C(=O)Cc3ccccc3)c3cc(C)ccc32)S1 | 103.8
CCOC(=O)C1=C(C(=O)OCC)SC(=C2C(=S)C(C)(C)N(C(=O)C(C)C)c3c(C)cc(C)cc32)S1 | 101.5
Cc1nc(SCC2=C(C(=O)OC(C)C)C(c3cccc(F)c3)C(C#N)=C(N)O2)c(C#N)c(C)c1C (centres undefined) | 113.4
Cc1ccc(NC2=NC(=S)N(c3cccc(Cl)c3)C23CCC(C(C)(C)C)CC3)cc1 (centres undefined) | 107.4
CC(=O)C1=C(c2ccccc2)S/C(=C2/C(=S)C(C)(C)Nc3ccc(C)cc32)S1 | 110.1
CC(=O)n1cc(/C=c2\sc3nc4c(C)cccc4n3c2=O)c(-c2ccc(F)cc2)n1 | 106.9
COc1ccc(-n2c(SCc3cccc(F)c3)nc3cc(C(=O)NCc4ccco4)ccc3c2=O)cc1OC | 104.0
CC(C(=O)N1c2ccccc2C(C)(c2ccccc2)CC1(C)C)N1C(=O)c2ccccc2C1=O (centres undefined) | 119.8
COc1cccc(NC(=O)c2sc3nc(C)nc(N4CCN(C)CC4)c3c2C)c1 | 100.5

Some of the entries above, reformatted.
CCC(C)(C)C1CCc2c(sc(NC(=O)c3c(-c4ccccc4Cl)noc3C)c2C(N)=O)C1 (centres undefined)
  GIV-Gai inh = 100.4

Cc1c(Cl)cccc1NC(=O)Nc1cccc(OCc2cc(=O)n3ccccc3n2)c1
  GIV-Gai inh = 99.0

COc1ccc(-n2nc3c(c2NC(=O)C2(c4ccc(Cl)cc4)CCCC2)CS(=O)(=O)C3)cc1
  GIV-Gai inh = 111.3

O=C(NCc1ccc(F)cc1)c1ccc(Oc2ccnc(-c3cccc(F)c3)n2)cc1
  GIV-Gai inh = 99.1

Next structures follow:
canonical_smiles | GIV-Gai inh
CCCS(=O)(=O)c1c(S(=O)(=O)CCC)c2c3ccccc3ccn2c1C(=O)N/N=C/c1cc(OC)c(OC)c(OC)c1 | 104.6
O=C1NC(=O)N(c2ccccc2)C(=O)/C1=C/c1ccc(-c2ccccc2[N+](=O)[O-])o1 | 106.6
CCCC(=O)CN1C(=O)C2(OCCO2)c2ccccc21 | 103.7
Cc1nc(CNC(=O)[C@H]2CSCN2C(=O)Nc2cccc(Cl)c2)cs1 | 103.5
O=c1c2cn[nH]c2nc(SCc2nc(-c3cccc(Br)c3)no2)n1-c1ccccc1 | 99.5
CN(CCNc1ncnc2onc(-c3cc(F)cc(F)c3)c12)Cc1ccccc1 | 103.4
CC1CCN(C(=O)c2cc(NS(=O)(=O)c3ccc(Cl)cc3)ccc2N2CCNCC2)CC1 | 98.9
CCc1onc(C)c1C1CCCN1Cc1ccc(C)s1 (centres undefined) | 115.8
Cc1ccc2sc(N3CCN(CCNC(=O)c4ccc5c(c4)OCCO5)CC3)nc2c1C | 102.8
